# Yeast UUG start – modulators of yeast start codon fidelity, primary screen, whole organism, S. cerevisiae, single point, plate reader | S. cerevisiae UUG-firefly luciferase reporter, luminescence/redox ratio | activity score, % at 18.7 µM | hit rate 0.13% among 350,000 | AID 602363, 2012;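 active = replicate mean at a twofold rise or more, about +100% in these data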;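 also: firefly luciferase made from a UUG start codon reports start codon fidelity; reporter light over untreated wells divided by growth signal over untreated wells; some hits fall short of that in this replicate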
# CSC inhib – cancer stem cell viability inhibitors, primary screen, luminescence; cancer stem cell-like cells viability; inhibition, % at 7.5 µM; hit rate 1.1% among 300,000; AID 2717, 2010;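 active = mean at 75% or more and at least half the replicates too; inconclusive = mean and replicates disagree; tested in HMLE shEcad cells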;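 also: 0% = median of negative and 100% = median of positive control wells; the first replicate is given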
# HIV Env fusion – inhibitors of HIV-1 Env-driven cell-cell fusion, primary screen, HeLa-JRFL effector, CEM21 target cells, luciferase | inhibition, % at 12.3 µM | AID 651610, 2012 | hit rate 1.1% among 360,000;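 active = mean replicate inhibition score of at least 50 and every replicate individually at or above 50; inconclusive = only one of the two criteria met; inactive = mean below 50 and not all replicates reaching 50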;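 also: 0% = plate neutral controls and 100% = maraviroc near 300 nM; one replicate is shown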
# eIF4H inh – human eIF4H binding inhibitors, primary screen, translation initiation inhibitor project, biochemical, uHTS, fluorescence polarization. eIF4H fluorescence polarization binding assay. inhibition, % at 35 µM. Eukaryotic translation initiation factor 4H (Homo sapiens), Q15056. hit rate 0.94% among 290,000;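 active = 50% or more with normal probe brightness, or confirmed in later tests; inconclusive = above 50% with abnormal brightness, or retests that disagree; inactive = below 50% or failed in later tests; about a fifth of its hits are not listed in these tables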;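 also: calls also rest on retests at 20 µM and on dose response follow-up; 0% = protein and probe with vehicle and 100% = probe without protein; strong numbers were not always called active; many hits fall short of the cut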
# MT1-MMP act inh – blockers of MT1-MMP proenzyme processing, primary screen, HT1080 RFP-PRO-GFP cells, GFP/RFP fluorescence | Matrix metalloproteinase-14 (Homo sapiens), P50281 | GFP/RFP ratio fluorescence, overnight; percent of plate control window, DMSO zero | GFP/RFP ratio change, % at 20 µM | hit rate 0.061% among 360,000 | AID 651647, 2012;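 active = GFP/RFP ratio change of at least 30% with cell ATP level not reduced by more than half and red fluorescence within 50% of control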; also: strong numbers were not always called active
#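 Test system: HT1080 cells expressing an RFP-PRO-GFP fluorescent reporter construct / Compound dosing: single-point 20 µM compound, 1% DMSO / Schedule: cells overnight before dosing, compound overnight, 37 °C, 5% CO2 / Evaluation: GFP/RFP fluorescence ratio / Control set: DMSO and RFP-L50D-GFP cell wells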
# PABP polyA inh – PABP poly(A) RNA binding inhibitors, primary screen, biochemical, fluorescence polarization, uHTS; inhibition, % at 35 µM; Polyadenylate-binding protein 1 (Homo sapiens), P11940; hit rate 1% among 290,000; AID 2014, 2009;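 active = 50% or more with normal probe brightness, or confirmed in later tests; inconclusive = above 50% with abnormal brightness, or retests that disagree; inactive = below 50% or failed in later tests; about a fifth of its hits are not listed in these tables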;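 also: calls also rest on retests at 20 µM and on dose response follow-up; controls were probe without protein and protein plus probe with vehicle; some compounds called inactive have numbers as strong as hits; many hits fall short of the cut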
# Target sequence (P11940 whole entry, looked up): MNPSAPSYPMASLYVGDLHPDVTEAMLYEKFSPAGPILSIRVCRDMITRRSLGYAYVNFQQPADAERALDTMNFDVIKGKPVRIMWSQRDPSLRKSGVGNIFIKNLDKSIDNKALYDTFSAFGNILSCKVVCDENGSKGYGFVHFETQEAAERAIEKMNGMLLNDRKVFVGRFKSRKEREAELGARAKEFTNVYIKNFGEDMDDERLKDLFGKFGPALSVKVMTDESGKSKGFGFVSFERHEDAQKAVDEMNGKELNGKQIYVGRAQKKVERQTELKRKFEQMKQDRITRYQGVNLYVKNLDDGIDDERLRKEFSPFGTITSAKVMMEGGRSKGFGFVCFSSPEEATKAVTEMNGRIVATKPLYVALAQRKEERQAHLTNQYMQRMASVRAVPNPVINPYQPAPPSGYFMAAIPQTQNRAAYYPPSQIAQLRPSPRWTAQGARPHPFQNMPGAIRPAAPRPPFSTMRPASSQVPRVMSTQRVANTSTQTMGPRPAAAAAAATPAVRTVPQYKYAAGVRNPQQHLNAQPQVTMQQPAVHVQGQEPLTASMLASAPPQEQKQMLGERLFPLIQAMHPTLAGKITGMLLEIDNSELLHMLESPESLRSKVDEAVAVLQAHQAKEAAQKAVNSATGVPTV
# Rce1 inhib – yeast Rce1p protease inhibitors, primary screen, biochemical, fluorescence, cell-free homogeneous; CAAX prenyl protease 2 (Saccharomyces cerevisiae (strain ATCC 204508 / S288c)), Q03530; yeast membranes, quenched prenylated peptide cleavage fluorescence; calls only; hit rate 0.27% among 290,000; AID 2563, 2010;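 active = fall in fluorescence gain of 50% or more versus controls, with final raw signal at or below 3038400; inconclusive = same 50% fall but final raw signal above 3038400; inactive = fall in fluorescence gain under 50%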;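 also: plate controls were neutral control wells for no effect and wells lacking membranes for full effect; tested at 10 µM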
# eIF4H inh retest – recorded beside eIF4H inh, whose call it bears; inhibition, %; compound at 20 µM; confirmation average;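 mean of two retest wells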
# PABP polyA inh retest – second read-out of PABP polyA inh, no call of its own (marks repeat the call); inhibition, %; compound at 20 µM; confirmation repeats;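 mean of two retest wells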
# MT1-MMP act inh RFP – second read-out of MT1-MMP act inh, no call of its own (marks repeat the call); RFP signal change, %; measured here: RFP expression control read;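 0 = vehicle wells; hits needed this value within 50% of zero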
# Starred values were filed as active, the others as inactive; i = inactive; ? = inconclusive; · = no result given; + = active, no number; & = joins results of further samples; [ ] = dose if it differs, or a comment. These rows are one share of the data; the hit share may differ from the screen's.
SMILES,Yeast UUG start,CSC inhib,HIV Env fusion,eIF4H inh,MT1-MMP act inh,MT1-MMP act inh RFP,PABP polyA inh,Rce1 inhib,others
CC(=O)c1cccc(NC(=O)c2cccc3ccccc23)c1,-6,-2,-10,-1,2,0,1,i,
NC(=O)C1CCCCc2c1[nH]c1ccc(Cl)cc21 (configuration not stated),6,4,23,-8,4,-1,-3,i,
COc1ccc2c(c1)c1ncn(CCN3CCCCC3)c(=O)c1n2C,-4,-7,-35,-6,13,1,-2,+,
CCOC(=O)/N=C(/NC(=O)Nc1ccc(C(=O)OCC)cc1)OC,0,-9,2,2,0,2,-4,i,
O=C1CCCN1CC(=O)N1CCCC(Nc2cccc(F)c2)C1 (configuration not stated),-5,2,-16,71,-1,4,10,i,eIF4H inh retest=-6;PABP polyA inh retest=11
Cc1cc(N2CCC(C)CC2)n2ncc(-c3ccccc3)c2n1,-72,-12,·,-8,-4,-3,-16,i,
CN(c1ccccc1)S(=O)(=O)c1cccc(NC(=O)CCNC(=O)c2ccc(Cl)cc2)c1,6,-5,15,·,-2,-10,·,·,
Cc1noc(C)c1C(=O)N1CCN(c2ccc(OCc3ccccc3)cc2)CC1,-1,5,0,-3,8,-6,-1,i,
CC(C)Nc1nc(-c2ccncc2)nc(-c2ccc(Cl)cc2)c1C#N,·,-7,16,-2,-1,-3,-12,i,
CC1=NN(c2nc(-c3ccc(C)cc3)cs2)C(=O)C1N=Nc1ccc(C(N)=O)cc1 (configuration not stated),·,-16,-2,-7,-13,-1,-9,i,
COc1ccc(N2CCC(CNC(=O)Nc3cccc(OC)c3)C2)cc1 (configuration not stated),-13,-13,-52,8,-3,3,-13,i,
CC#CC[N+](C)(C)CC(=O)c1ccccc1,-19,-3,0,2,4,5,11,i,
Cc1n[nH]c(=O)nc1NCC1CCCO1 (configuration not stated),-14,-3,-31,0,2,2,-3,i,
COCCN(C(=O)CSc1ccc2c(c1)OCCO2)c1c(N)n(CC(C)C)c(=O)[nH]c1=O,-20,7,-3,·,0,3,·,·,
O=C1C(C2=NC(c3ccccn3)C3C(=O)N(c4ccccc4)C(=O)C23)=C(O)c2ccccc21 (configuration not stated),·,-10,4,-3,4,3,-9,i,
COC(=O)c1c(C)[nH]c(C(=O)C(C)Sc2nnc(-c3cc(OC)c(OC)c(OC)c3)o2)c1C (configuration not stated),2,9,44,2,-10,-5,-3,i,
Cc1cccc(C(=O)OCC(=O)Nc2sccc2C(N)=O)c1C,-6,·,-32,·,0,4,·,·,
CC(C)C[C@H]1CNC(=S)N1C[C@H]1CCCN1C[C@H](CC(C)C)N1C[C@H](Cc2ccccc2)N(CCc2ccccc2)C1=S,-14,·,30,·,-7,-17,·,·,
CCn1c(CNC(=O)c2ccccc2F)nnc1SCc1nc2ccccc2c(=O)[nH]1,·,1,-2,8,·,·,-5,i,
CN1C=CC(=CC=C2C=CC(=O)C=C2)C=C1,-17,-7,10,-1,-27,6,0,i,
O=C(CNC(=O)Cn1ccc2ccccc2c1=O)NCCCN1CCN(c2cccc(Cl)c2)CC1,-9,20,-3,-2,1,-2,-6,i,
Cc1onc(-c2ccccc2)c1C(=O)N(C)CCc1ccccn1,-32,4,18,0,0,1,-8,i,
C[C@@H]1CCCCO[C@@H](CN(C)C(=O)Nc2ccc3c(c2)OCO3)[C@@H](C)CN([C@H](C)CO)C(=O)c2cc(N(C)C)ccc2O1,7&-4,·,-12&3[16.7 µM],·,-2,-1,·,·,
CC(NC(=O)CCCCCN1C(=O)c2ccccc2C1=O)c1ccc2c(c1)CCCC2 (configuration not stated),15,-8,·,-18,4,1,4,i,
O=Cc1c[nH]c2cccc(OCc3ccccc3)c12,-6,·,4,·,2,2,·,·,
CN(CC(O)COc1ccccc1F)C1CCCCC1 (configuration not stated),·,-6,8,-1,-2,3,64,i,eIF4H inh retest=47;PABP polyA inh retest=31
CCOC(=O)c1sc(=S)n(-c2cccc(OC)c2)c1N,-9,1,·,-10,2,5,-1,·,
Cc1ccc2nc(-c3ccc(N4C(=O)CC(N5CCC(C(N)=O)CC5)C4=O)cc3)sc2c1 (configuration not stated),·,-16,·,4,·,·,-2,i,
Cc1cccc(NC(=S)NCCN2CCOCC2)c1,·,·,1,-1,2,7,14,i,
N#Cc1c(NC(=O)C2CC(c3ccccc3Cl)=NO2)sc2c1CCC2 (configuration not stated),-19,-11,·,-5,1,-5,-2,i,
CCN(C(=O)COn1nnc2ccc(S(=O)(=O)N(C)C)cc21)C1CCS(=O)(=O)C1 (configuration not stated),-10,-18,-2,·,-2,2,·,·,
COc1cccc(C2C3=C(CC(C)(C)CC3=O)Nc3n[nH]c(C)c32)c1 (configuration not stated),·,-1,-60,-2,-4,2,4,i,
C=CCn1c(SCC(=O)Nc2ccc(-c3nc4ccc(C)cc4s3)cc2)nnc1-c1ccncc1,-13,-11,-15,14,3,2,4,i,
CCOC(=O)c1c(NC(=O)C2CCCCC2C(=O)O)sc2c1CCCCC2 (configuration not stated),·,-4,4,5,2,1,21,i,
Nc1ccccc1C#CCCCCO,-9,7,21,4,-1,-4,-4,i,
O=C(CNC(=O)N1CC(=O)Nc2ccccc21)NCCc1ccc(Cl)cc1,0,4,25,-11,-1,1,-1,i,
Cc1cscn1,-29,-7,·,·,3,7,·,·,
CC1CC(C)CN(Cc2nc(N)nc(Nc3ccccc3)n2)C1 (configuration not stated),-23,-12,·,10,1,0,2,i,
Cc1c(C(=O)Nc2ccc(F)cc2)c2ccccn2c1CCc1ccncc1,·,8,22,13,-8,-2,5,i,
COc1ccccc1N1C(=O)C(Cl)=C(N2CCCC2)C1=O,-17,-1,1,-8,3,7,5,i,
O=C(O)c1ccccc1-n1c2ccccc2c2ccccc21,-13,-11,-10,-3,2,11,5,i,
O=C(Cc1ccccc1)NNC(=S)NC(=O)c1cccnc1,-15,3,10,-11,-1,4,-11,i,
CCN(c1ccccc1)S(=O)(=O)c1ccc(Cl)c(NC(=O)CN(C)C2CCN(C)CC2)c1,1,-4,2,1,1,-3,-3,i,
O=c1c2sc3ccccc3c2[nH]c(=S)n1CCN1CCOCC1,·,-6,13,4,-2,1,10,i,
CCCC(=O)Nc1ccc2c(c1)nc(CCNC(=O)c1ccccc1)n2C,3,-14,·,-3,-4,-1,2,i,
O=C(NCCN=C1NS(=O)(=O)c2ccccc21)c1ccncc1,-19,-7,-18,-7,0,2,0,i,
O=C1OCCC1Sc1nc2cc(Cl)ccc2s1 (configuration not stated),-12,-1,-32,5,6,1,-2,i,
CCCCNCCCOc1cccc(Cl)c1Cl,·,·,·,-7,5,-3,-5,i,
O=[N+]([O-])c1ccc(NCCOc2ccccc2Cl)nc1,-23,6,-9,0,7,2,-5,i,
CCCn1ncc(CN2CCC(Cc3cccc(F)c3)(C(=O)OCC)CC2)c1C,-10,3,-11,3,6,1,2,i,
O=C(CSc1nnc(Cn2c(=O)sc3ccccc32)n1-c1ccccc1)NCC1CCCO1 (configuration not stated),-10,-4,-21,-4,-2,2,7,i,
CCCS(=O)(=O)NC(=O)C1(C)CCCN(C(=O)c2oc3ccccc3c2C)C1 (configuration not stated),-17,·,-33,·,-1,4,·,·,
Cc1ccc(CNC(=O)C2CCC(CNS(=O)(=O)c3cccs3)CC2)cc1 (configuration not stated),-6,5,-8,-6,1,6,-2,·,
O=C(CCc1ccc(Oc2cc([N+](=O)[O-])cc([N+](=O)[O-])c2)cc1)Nc1cccc(Cl)c1,·,51,3,102,3,-8,-7,i,eIF4H inh retest=7;PABP polyA inh retest=10
COc1cccc(-c2csc(NC3OC(=O)c4c3ccc(OC)c4OC)n2)c1 (configuration not stated),-3,5,-26,-4,1,-2,8,i,
COc1ccc(NC(=O)C(c2ccc(Cl)cc2)C(C)C)cn1 (configuration not stated),-1,10,·,?,-9,1,?,i,
COc1ccccc1N1CCN(C(=O)c2oc3ccc(F)cc3c2C)CC1,1,41,·,-2,0,2,-8,i,
CCOC(=O)NC(=O)CSc1nc2ccc([N+](=O)[O-])cc2[nH]1,·,0,9,-3,-3,2,1,i,
CCOc1cccc(C(=O)Nc2ccc(S(=O)(=O)Nc3cc(C)on3)cc2)c1,-15,·,3,-2,2,0,-6,i,
CCc1c(C)n([O-])c2c([n+]1=O)CCCCC2,-14,-10,·,-4,1,4,-4,i,

# Carrying on.
SMILES,Yeast UUG start,CSC inhib,HIV Env fusion,eIF4H inh,MT1-MMP act inh,MT1-MMP act inh RFP,PABP polyA inh,Rce1 inhib,others
COc1ccc(-n2nc([N+](=O)[O-])c(=NCCc3ccc(Cl)cc3)n2O)cc1,23,11,·,-4,7,-1,2,i,
COc1cccc2cc(-c3cc(=O)oc4ccc(OCC(C)=O)cc34)oc12,-13,-5,1,-4,-1,-5,2,i,
Cc1ccc(SCCC(=O)NCC2CCCO2)cc1 (configuration not stated),-10,11,3,-11,0,3,5,i,
CN1C(=O)N(C)C2C1N(CN1CCCCC1)C(=O)N2CN1CCCCC1 (configuration not stated),4,-12,·,-11,-1,3,1,i,
O=C(N/N=C/c1ccco1)c1cc2ccccc2o1,-20,-3,-7,-10,2,4,-6,i,
O=C1CSC(=NC2CCCCC2)N1,-7,1,·,-2,1,7,-4,i,
C#C[C@]1(O)CC[C@H]2[C@@H]3CCc4cc(OC5CCCC5)ccc4[C@H]3CC[C@@]21C,1&-15,98*,14,-4,5,6,6,i,
C[C@H](CO)N1C[C@H](C)[C@@H](CN(C)S(=O)(=O)c2cn(C)cn2)OCc2cnnn2CCCC1=O,-1&-11,·,-20,·,-1,6,·,·,
COc1ccc(Cl)cc1C(=O)NNC(=O)c1n[nH]c2ccccc12,0,-10,·,·,-4,3,·,·,
O=C(CCN1C(=O)COc2ccccc21)NCc1cccs1,-29,-13,·,-12,-2,2,12,i,
O=C(c1ccc(Cl)cc1)N1CCC(N2CCC(C(=O)N3CCOCC3)CC2)CC1,5,6,·,-9,0,3,-4,i,
COc1cccc(N(CC(=O)O)S(=O)(=O)c2ccccc2)c1,-12,-12,-30,2,0,0,3,i,
O=C(NC1CCCC1)C1CC(O)CN1C(=O)Nc1ccccc1 (configuration not stated),-10,-14,-12,-2,4,0,6,·,
C[n+]1c2n(c3ccccc31)N=C(c1ccc(-c3ccccc3)cc1)CS2,·,39,66*,-5,-15,-29,-9,i,
COCCNS(=O)(=O)c1ccc(OCC(=O)OC)c(Cl)c1,-11,-24,-14,-2,1,4,-11,i,
CN(C)S(=O)(=O)c1ccc(N2CCCC2)c(C(=O)N2CCN(S(=O)(=O)c3cccc(F)c3)CC2)c1,·,-11,-7,·,-3,-1,·,i,
Cc1cc(NC(=O)C2CCCCC2C(=O)O)no1 (configuration not stated),14,2,·,-4,1,3,2,i,
CSc1ncccc1C(=O)OCC(=O)NC12CC3CC(CC(C3)C1)C2,-1,-9,16,·,2,-2,·,·,

# Screening results: PubChem, several laboratories
